# Tgondii IFNg = blocks Toxoplasma gondii growth in the presence of IFN-gamma. 3.8% of 69,000 active. activity change, negative = inhibition, %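 (about 20 µM by stock and volumes)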. Toxoplasma gondii growth in IFN-gamma-treated host cells; active compounds read low; reference of the scale not given here;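 active = below -70%; inconclusive = fit judged invalid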;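 also: host cells are HeLa cells infected with Toxoplasma gondii; parasite growth read as luciferase light; one replicate is shown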
# An asterisk follows results filed as active; ? = inconclusive; & = joins results of further samples. An excerpt; count on the stated rates, not on these rows.
SMILES,Tgondii IFNg
O=C(NCCc1c[nH]c2ccc(Cl)cc12)c1cc(-c2ccccn2)nc2ccccc12,-70
O=C1NC(=O)/C(=C\c2cccc(C(F)(F)F)c2)S1,25
COc1ccccc1CN1C[C@@H]2C[C@@H](c3ccc(SC)cc3)N3CCC[C@@]23C1=O,2
CSc1sc(-c2ccno2)c(-c2ccco2)c1C#N,77
Oc1ccc(CCC2CCCCN2Cc2ccncc2)cc1 (stereo not given),11
Cc1ccc(C(=O)NC(C)c2ccc3c(c2)OCCO3)cc1N1CCCC1 (stereo not given),3
O=C(NC1CCCCC1)c1cncc(NS(=O)(=O)c2ccc(Cl)cc2)c1,-59
Cc1ccccc1-c1ccccc1C(=O)N1CCC2(CN(C)C(=O)O2)C1 (stereo not given),6
CCS(=O)(=O)N1Cc2cnn(C)c2C(COCC2CC2)C1 (stereo not given),2
CN1CC2(CCCN(C(=O)c3ccc(Cn4cccn4)o3)CC2)OC1=O (stereo not given),-6

# Overlap with the part before: 5 entries, then new ones.
SMILES,Tgondii IFNg
Cc1ccc(C(=O)NC(C)c2ccc3c(c2)OCCO3)cc1N1CCCC1 (stereo not given),3
O=C(NC1CCCCC1)c1cncc(NS(=O)(=O)c2ccc(Cl)cc2)c1,-59
Cc1ccccc1-c1ccccc1C(=O)N1CCC2(CN(C)C(=O)O2)C1 (stereo not given),6
CCS(=O)(=O)N1Cc2cnn(C)c2C(COCC2CC2)C1 (stereo not given),2
CN1CC2(CCCN(C(=O)c3ccc(Cn4cccn4)o3)CC2)OC1=O (stereo not given),-6
CCCCn1c(SCC(=O)Nc2nnc(C)s2)nnc1-c1ccoc1C,-32
Cc1cccnc1CN1CCN(C(=O)c2sc(Cc3ccccc3)nc2C)CC1,1
O=C(NCCc1ccc(O)c(O)c1)C12CC3CC(CC(C3)C1)C2,11
COc1ccc(C(=O)Nc2ccc(-c3nc(-c4ccccc4)co3)cc2)cc1,29
N#Cc1cn(C2CCN(Cc3ccccc3)CC2)c(=O)[nH]c1=O,-16
CNC(=O)Sc1ccccc1Cl,-62
CC(=O)NCC1CCCN(Cc2ccc(C)c(Cl)c2Cl)C1 (stereo not given),0
CSc1scc(-c2ccc(Cl)cc2)c1C#N,-91*
Cn1ccc(NC(=O)NC(=O)c2c(F)cccc2F)n1,18
CSc1cccc(NC(=O)CN2C(=O)CCc3cc(S(=O)(=O)N4CCCC4)ccc32)c1,2
C/C=C(\C)C(=O)NCC1Cc2cccc(-c3cncnc3)c2O1 (stereo not given),11
CCc1nc(OCC(=O)Nc2c(C)cc(C)cc2C)c2ccccc2n1,9
OCC#Cc1csc(CN2CCN(c3ncc(Cl)cn3)CC2)c1,-12
CCN1c2ccc(Cl)cc2C(=O)NC12CCN(C(=O)Nc1cccc(OC)c1)CC2,40
C[C@H]1CN([C@@H](C)CO)C(=O)CCCn2cc(nn2)CO[C@H]1CN(C)C(=O)c1ccc(N2CCN(C)CC2)cc1,38
CCc1nc(OCC(=O)Nc2ccc(F)cc2)c2ccccc2n1,15
C[C@@H]1CCCCO[C@H](CN(C)C(=O)Cc2ccccc2)[C@H](C)CN([C@H](C)CO)C(=O)c2cc(NS(C)(=O)=O)ccc2O1,-33
COc1cc(C(=O)N2CCC3(CC2)NC(=O)c2cc(F)ccc2N3C)cc(OC)c1OC,11
CO[C@@H]1CCN(C(=O)NCc2cccc(F)c2)[C@H]1Cc1cccnc1,6
COc1ccccc1NC(=O)Cn1c(=O)cc(C(=O)N2CCCC2)c2ccccc21,9
CN1C(=O)c2cc(NC(=O)Nc3ccc(Cl)cc3)ccc2OC[C@@H]2O[C@H](CC(=O)NCCN3CCCCC3)CC[C@H]21,-1
C[C@@H]1CN([C@@H](C)CO)C(=O)CCCn2nncc2CO[C@H]1CN(C)C(=O)Nc1cccc(Oc2ccccn2)c1,165
CCOC(=O)c1cnn(C(=O)OCC)c1N,2
O=S(=O)(NCCc1csc(-c2cccc(F)c2)n1)c1cccc(F)c1,-21
CC1(C)NC(=O)N(CC(O)CN2C(=O)c3ccccc3C2=O)C1=O (stereo not given),33
CCn1c(C2CCN(C(=O)c3cccc(F)c3OC)CC2)n[nH]c1=O,9
CN1C(=O)CC2C1CCN2Cc1cccc(C#N)c1 (stereo not given),6
C=CCN(Cc1ccccc1C)Cc1ccccc1O,-8
CNC(=O)C1CC2(CCN(Cc3cccc(C)n3)CC2)c2ccccc21 (stereo not given),83
COCCN1C2(CCN(S(=O)(=O)c3ccccc3)C2)c2ccccc2S1(=O)=O (stereo not given),-21
O=C(CCc1ccccc1)NN1C(=O)c2ccccc2C1=O,9
COc1ccc(CNC(=O)CCC2N=C3c4ccccc4N=C(SCc4ccccc4F)N3C2=O)cc1 (stereo not given),-12
CCCN1CCc2nc(SCc3nc(-c4cccc(Cl)c4)oc3C)[nH]c(=O)c2C1,13
Cc1cccc(C)c1OC1CN(C(=O)CN2CC(=O)NC2=O)C1,2
C/C(=N/N1CCN(Cc2cccc3ccccc23)CC1)c1cccnc1,-96*
COCCN(C)C(=O)c1nc(-c2cn(Cc3ccccc3)cn2)n2ccccc12,3
O=C(Nc1nccs1)c1c(O)c2ccccc2[nH]c1=O,26
Cc1cc(C)cc(C(=O)Nc2ccc(-c3nc(Cn4nc(C)cc4C)c(C)o3)cc2)c1,-97*
O=C(CCn1nnc(-c2ccccc2)n1)N1CCCn2cncc2C1,-1
CC1CCc2cc(F)ccc2N1C(=O)c1cc2cccnc2n(Cc2ccccc2F)c1=O (stereo not given),-28
O=C(Nc1ccc(Cl)c(Cl)c1)n1ccc(C(F)(F)F)n1,?
CCOCC12CCCOC1CCN(C(=O)c1cccn1C)C2 (stereo not given),28
O=C(NCc1cncc2c1CCN(Cc1cccc(F)c1)C2)C1CC1,-56
CCCCN(CCCC)C(=O)c1cc2cccnc2n(Cc2ccc(Cl)cc2)c1=O,-61
O=C(C(=O)N1CCC(N2CCCC(C(=O)N3CCOCC3)C2)CC1)c1ccco1 (stereo not given),3
COc1ccc(CNC2=NCCNC23CCN(S(=O)(=O)c2cccs2)CC3)cc1,17
COc1ccc(CC2CCC(=NOC(=O)C3CCCCC3)CC2)cc1 (stereo not given),-29
CCn1c(N2C[C@@H]3[C@H](C2)[C@H]2CC[C@@H]3O2)nc2cc(C(=O)OC)cnc21,0
CCN(CC)CCNC(=O)C1=C(C)C(=O)OC12CCN(S(=O)(=O)CC)CC2,23
CC(NC(=O)Cn1nc(-c2ccco2)ccc1=O)c1ccccc1 (stereo not given),1

# Among those listed so far, 7 have two or more sulfur atoms.
SMILES,Tgondii IFNg
CSc1sc(-c2ccno2)c(-c2ccco2)c1C#N,77
CCCCn1c(SCC(=O)Nc2nnc(C)s2)nnc1-c1ccoc1C,-32
CSc1scc(-c2ccc(Cl)cc2)c1C#N,-91*
CSc1cccc(NC(=O)CN2C(=O)CCc3cc(S(=O)(=O)N4CCCC4)ccc32)c1,2
O=S(=O)(NCCc1csc(-c2cccc(F)c2)n1)c1cccc(F)c1,-21
COCCN1C2(CCN(S(=O)(=O)c3ccccc3)C2)c2ccccc2S1(=O)=O (stereo not given),-21
COc1ccc(CNC2=NCCNC23CCN(S(=O)(=O)c2cccs2)CC3)cc1,17

# Further structures follow.
SMILES,Tgondii IFNg
NC(=O)NCC(=O)N1CCCC(C(=O)c2ccc(-c3ccccc3)c(F)c2)C1 (stereo not given),-1
O=C1CC[C@]2(CCCN(C(=O)COc3ccc4c(c3)OCO4)[C@@H]2c2cccc(F)c2)N1,-11
COc1cccc(CCC(=O)N2CCC(c3nc(C(=O)N(C)C)c(C)o3)CC2)c1,-36
CCN1c2ccc(C)cc2C(=O)NC12CCN(C(=O)c1ccc(Br)cc1)CC2,-17
CCCc1nc(C(=O)NCc2csc(N3CCOCC3)n2)cs1,-18
Nc1cccc(-n2c(CO)nc3ccccc32)n1,-39
c1ccc(N2CCC3(CC2)CN(c2ncccn2)CCO3)nc1,-11
COc1ccc(-c2nc(CSc3nc4c(=O)[nH]cnc4n3C)c(C)o2)cc1OC,-18
CN(C)CC/C=C1/c2ccccc2Sc2ccc(Cl)cc21,-62&-69
C[C@H](NC(=O)C[C@H]1CC[C@@H]2[C@H](COc3ccc(NS(=O)(=O)c4ccc(Cl)cc4)cc3C(=O)N2C)O1)c1ccccc1,11
COc1ccc(F)cc1CN1CC[C@@](C)(O)[C@@H](Cc2ccccc2)C1,-48
Cn1cnc(S(=O)(=O)N2C[C@H](O)COC[C@H]3O[C@@H](CC(=O)NCc4cccc(F)c4)CC[C@@H]32)c1,19
CO[C@H]1CN(C)C(=O)c2cc(NC(=O)C3CCCCC3)ccc2OC[C@H](C)N(Cc2cccnc2)C[C@H]1C,-59
CCCNC(=O)N1C[C@H](C)[C@@H](OC)CN(C)C(=O)c2ccc(NC(=O)CC)cc2OC[C@@H]1C,-8
Cc1cccc(Cc2cccc(C3CCCN(C(=O)Cc4c[nH]c5ccccc45)C3)n2)c1 (stereo not given),7
O=C1COc2ccc(S(=O)(=O)N3CCCC3c3ccccn3)cc2N1 (stereo not given),0
COc1cccc2c1c(NC(=O)CCC(=O)O)nn2C,74
CC(C)N1CCOCC2(CCCN(C(=O)c3ccc4ccccc4n3)C2)C1 (stereo not given),10
CCN(CC)Cc1cnc2n1CCN(Cc1csc(C)n1)CC2,4
c1cc(-c2n[nH]c(C3CCCNC3)n2)ccn1 (stereo not given),-4
C[C@@H]1CCCCO[C@@H](CN(C)S(=O)(=O)c2cn(C)cn2)[C@H](C)CN([C@H](C)CO)C(=O)c2cc(N(C)C)ccc2O1,114
Cc1nn2c3ccccc3nc2c2ccccc12,-62
Cc1nc2ccccc2c(=O)n1-c1cccc2ccccc12,1
O=C(NC1CCCC1)N[C@@H]1C=C[C@H](CC(=O)N2CCOCC2)O[C@H]1CO,-27
Cc1nc(-c2ccc(F)cc2)sc1CCNC(=O)C(=O)Nc1ccc(F)cc1,22
O=C(CN1CCOCC1)N1CC[C@@H]2[C@@H](CO)Nc3ccc(Br)cc3[C@@H]21,13
CC(c1ccon1)N(C)C(=O)c1cc(-c2ccncc2)nc2ccccc12 (stereo not given),-11
Cc1ccc(C2(O)CCN(C(=O)C(=O)c3ccco3)CC2)nc1,-3
O=S(=O)(NCCc1cc(N2CCOCC2)nc(N2CCCC2)n1)N1CCCC1,-9
O=C(CN1CCOCC1)N1CCCCN2[C@H](CO)[C@@H](c3ccc(Br)cc3)[C@@H]2C1,27
N[C@@H]1c2ccccc2C2(CCN(C(=O)c3cccnc3)CC2)[C@H]1O,-6
C=C[C@@H]1C[C@]1(NC(=O)[C@@H]1C[C@@H]2CN1C(=O)[C@H](C(C)(C)C)NC(=O)O[C@@H]1C[C@H]1CCCCCc1nc3ccc(OC)cc3nc1O2)C(=O)NS(=O)(=O)C1CC1,-47
O=C(O)C1CC(N2CCOCC2)CCN1Cc1ccsc1 (stereo not given),90
COc1cccc(C#Cc2ccc3c(c2)[C@@H]2[C@@H](CCN2C(=O)c2ccccc2F)[C@@H](CO)N3)c1,1
Cc1cc(C)n(CC(C)NCc2cnc(-c3ccccc3C)s2)n1 (stereo not given),-62
COc1ccc2c3c(n(C)c2c1)[C@H](CO)N(C(=O)Nc1ccc(F)cc1)CC31CN(C(=O)CN2CCOCC2)C1,51
CCO[C@@H]1CC[C@@H]2[C@@H]1OCCN2C(=O)c1cn2cc(Cl)ccc2n1,2
Cc1ccc(C)c(-c2noc(-c3c(O)c4ccccc4[nH]c3=O)n2)c1,71
COc1ccccc1OCC(=O)Nc1ccccc1C(=O)N1CCCC1,-3
O=C1CCCN1CCC1CCN(Cc2cc(F)ccc2O)CC1,-43
CCN(CC)C(=O)C1(c2ccccc2)CC1CN (stereo not given),10
CC(=O)N1CCCC(c2cccc(Oc3cccnc3)n2)C1 (stereo not given),-34
COc1ccc(NC(=O)c2c(O)c3cccnc3n(-c3ccc(F)cc3)c2=O)cc1F,132
Cc1nsc(NC(=O)N2CCCC(c3ccc(Cl)cc3)C2)n1 (stereo not given),-48
C=CC[C@@H]1CC=C[C@@H](C)N1C(=O)CCN1CCCO1,26
O=C(CN1C(=O)CCc2cc(Br)ccc21)Nc1ccccc1,9
CCN(CC1CCOCC1)C(=O)c1cc(-c2ccccc2Cl)oc1C,67
CN(CCc1ccccc1)Cc1cc(C(=O)N2CC[C@H](O)C2)no1,7
CCN1C(=O)N(Cc2cccc(OC)c2)C(=O)C12CCN(Cc1cnn(C)c1C)CC2,0
Cc1nc(NCCc2cnccn2)cc(C2CCNCC2)n1,12

# Remaining list, next part.
SMILES,Tgondii IFNg
C[C@@H]1CN([C@H](C)CO)C(=O)c2cc(NS(=O)(=O)c3cn(C)cn3)ccc2O[C@@H]1CN(C)C(=O)Nc1cccc2ccccc12,-44
COc1ccc2c3c([nH]c2c1)[C@H](CO)N(Cc1ccccc1F)CC31CN(CC2CC2)C1,7
Cc1cccc(CN2CCN(Cc3sc(N(C)C)nc3Cl)CC2)c1,-8
Cc1ccc(S(=O)(=O)N2CCN(S(=O)(=O)c3cc4c5c(c3)CCC(=O)N5CCC4)CC2)cc1,0
C/C=C/c1ccc([C@@H]2[C@H](CO)N(C(C)=O)[C@H]2CN(CC)C(=O)CN(C)C)cc1,-10
CCN(Cc1ccccc1)C(=O)c1cc2cccnc2n(Cc2ccccc2)c1=O,-4
COCC1CN(C(=O)Cc2ccsc2)Cc2c1cnn2C (stereo not given),29
C=C1C2(C(=O)N3CCN(c4nnc(C(F)(F)F)s4)CC3)CCC(C2)C1(C)C (stereo not given),16
Cc1cc(C)n2c(SCC(=O)O)nnc2n1,-60
O=C(NCCc1csc(-c2ccccc2)n1)C1CCN(C(=O)Cc2cccc(F)c2)CC1,-30
